# Source: PubChem (Broad Institute)
# NOMO-1 viab – NOMO-1 AML cell viability reduction, primary screen, STK33 inhibitor project, CellTiter-Glo luminescence | AID 2330, 2010 | inhibition, % (test concentration not listed) | NOMO-1 AML viability, 72 h | 37,000 compounds, 7.5% hits;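 active means most replicates above 80%; inconclusive means exactly half above 80%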;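 further: wells of about 30 µL received 25 nL stock; 0% = median of vehicle wells and 100% = reference inhibitor level; the first replicate is given; inactives centre near 10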
# The depositor's hits bear a star; u = inconclusive. Only part of the results is shown, so the mix of outcomes need not match the whole.
SMILES,NOMO-1 viab
C[C@@H]1CN([C@H](C)CO)C(=O)c2cc(NC(=O)Cc3ccccc3)ccc2O[C@H]1CN(C)S(=O)(=O)c1cn(C)cn1,5.0
C[C@@H]1CN([C@@H](C)CO)C(=O)c2cc(NC(=O)Nc3ccc4c(c3)OCO4)ccc2O[C@H]1CN(C)S(=O)(=O)c1ccc(Cl)cc1,12.5
Cc1cc(C)c(C)c(OCC(=O)Nc2ccccc2C(N)=O)c1,u
COc1ccc(NC(=O)Nc2ccc3c(c2)CC(=O)N([C@@H](C)CO)C[C@@H](C)[C@@H](CN(C)Cc2ccc(C(=O)O)cc2)O3)cc1,19.6
Cn1cc(CNC(=O)c2cc(-c3ccc(Br)cc3)nc3ccccc23)cn1,15.6
CCCN(Cc1cc2cccc(C)c2[nH]c1=O)S(C)(=O)=O,10.7
O=C(c1ccccc1Oc1nc([N+](=O)[O-])nn1Cc1ccccc1F)N1CCCC1,-12.3
C[C@H]1CN([C@@H](C)CO)C(=O)c2cc(NC(=O)Nc3ccccc3)ccc2O[C@H]1CN(C)S(=O)(=O)c1ccc(Cl)cc1,35.0
COc1cccc(-c2nnc(SCC(=O)Nc3cccc(Cl)c3)n2C)c1,17.4
C[C@@H]1CN([C@@H](C)CO)C(=O)c2cc(NS(=O)(=O)c3cn(C)cn3)ccc2O[C@H]1CN(C)S(=O)(=O)c1ccc(F)cc1,40.2
Cc1noc(C)c1NC(=O)N(C)C[C@H]1Oc2ccc(NS(=O)(=O)c3cn(C)cn3)cc2CC(=O)N([C@H](C)CO)C[C@H]1C,-8.8
C[C@@H]1CN([C@H](C)CO)C(=O)Cc2cc(NC(=O)CCC(F)(F)F)ccc2O[C@H]1CN(C)C(=O)Nc1ccc(F)cc1,-2.8
O=C(COc1ccc(C2CCCCC2)cc1)Nc1cccc2ncccc12,67.8
COc1ccc(NC(=O)Nc2cccc3c2O[C@H](CN(C)S(=O)(=O)c2cccs2)[C@@H](C)CN([C@@H](C)CO)C3=O)cc1,9.9
C[C@@H]1CCCCO[C@@H](CN(C)S(=O)(=O)c2cccs2)[C@@H](C)CN([C@H](C)CO)C(=O)c2cc(NC(=O)CCCCCC(=O)Nc3ccccc3N)ccc2O1,21.1
CC(C)(CO)NCC(O)COc1ccccc1Cl (configuration not stated),42.0
COc1ccc(NC(=O)Cn2cnc3sc(C)c(C)c3c2=O)cc1,-3.9
C[C@@H]1CN([C@H](C)CO)C(=O)c2cc(NC(=O)Cc3cn(C)c4ccccc34)ccc2O[C@H]1CN(C)Cc1ccc(C(=O)Nc2ccccc2N)cc1,22.5
C[C@@H]1CN([C@H](C)CO)C(=O)c2cc(NC(=O)NC3CCCCC3)ccc2O[C@@H]1CN(C)Cc1ccc2c(c1)OCO2,-11.5
Cc1ccc(/C=C/C(=O)NC(=S)N2CCN(c3ccc(F)cc3)CC2)cc1,-33.7
Cc1noc(C)c1S(=O)(=O)Nc1ccc2c(c1)C(=O)N([C@H](C)CO)C[C@@H](C)[C@@H](CN(C)Cc1ccc(-c3ccccc3)cc1)O2,74.9
C[C@@H]1CN([C@H](C)CO)C(=O)Cc2cc(NS(=O)(=O)c3cn(C)cn3)ccc2O[C@H]1CN(C)C(=O)NC1CCCCC1,9.4
COc1ccc(S(=O)(=O)N(C)C[C@H]2Oc3c(NC(=O)Nc4cccc5ccccc45)cccc3C(=O)N([C@H](C)CO)C[C@H]2C)cc1,19.9
Cc1noc(C)c1S(=O)(=O)Nc1ccc2c(c1)CC(=O)N([C@H](C)CO)C[C@@H](C)[C@H](CN(C)Cc1ccc(Oc3ccccc3)cc1)O2,u
C[C@H]1CN([C@@H](C)CO)C(=O)c2cccc(NS(=O)(=O)c3ccc(Cl)cc3)c2O[C@H]1CN(C)Cc1ccc(C(=O)Nc2ccccc2N)cc1,117.7*
COc1ccc(-c2nn3c(Cn4cnc5ccccc54)nnc3s2)cc1OC,-2.1
COc1ccc(OC)c(-n2c(-c3cc(-c4ccco4)[nH]n3)n[nH]c2=S)c1,-13.5
C[C@H](CO)N1C[C@H](C)[C@@H](CN(C)Cc2ccc3c(c2)OCO3)Oc2ccc(NC(=O)Cn3cnnn3)cc2C1=O,-1.4
COc1ccc(CN2C(=O)C(O)(CC(=O)c3ccc4ccccc4c3)c3ccccc32)cc1OC (configuration not stated),61.2
COc1ccc(NC(=O)Nc2ccc3c(c2)CC(=O)N([C@@H](C)CO)C[C@@H](C)[C@@H](CN(C)Cc2ccc(C(=O)Nc4ccccc4N)cc2)O3)cc1,86.4*
C[C@@H]1CN([C@H](C)CO)C(=O)c2cc(NC(=O)c3ccncc3)ccc2O[C@@H]1CN(C)S(=O)(=O)c1cn(C)cn1,25.5
COc1ccc(NC(=O)C(C)N(c2cc(C)cc(C)c2)S(C)(=O)=O)c(OC)c1 (configuration not stated),4.3
Cc1ccc(OCC(=O)Nc2sc(C)c(C)c2C(N)=O)cc1,29.5
Cc1noc(C)c1NC(=O)N(C)C[C@H]1Oc2ccc(NC(=O)Cc3cn(C)c4ccccc34)cc2C(=O)N([C@H](C)CO)C[C@H]1C,-3.3
CC12CC3(C)CC(C)(C1)CC(C(=O)O)(C2)C3,27.3
CC(C)NC(=O)Nc1ccc2c(c1)C(=O)N([C@H](C)CO)C[C@@H](C)[C@H](CN(C)C(=O)NC(C)C)O2,18.2
C[C@@H]1CCCCO[C@@H](CN(C)S(C)(=O)=O)[C@@H](C)CN([C@H](C)CO)C(=O)c2cc(NC(=O)c3ccccc3)ccc2O1,1.5
Cc1ccc(S(=O)(=O)Nc2ccc3c(c2)C(=O)N([C@H](C)CO)C[C@@H](C)[C@H](CN(C)Cc2ccc(C(F)(F)F)cc2)O3)cc1,10.4
COC(=O)c1cccc(NC(=O)C(C)Oc2ccc3c(C)cc(=O)oc3c2)c1 (configuration not stated),16.6
Cc1ccc(-n2c(SCC(=O)Nc3cc(C(F)(F)F)ccc3Cl)nnc2-c2ccco2)cc1,14.3
CCOc1ccccc1OCc1nn2c(-c3ccc(C)cc3)nnc2s1,-2.2
Cc1cc([N+](=O)[O-])ccc1NC(=O)CN1C(=O)COc2ccc(Cl)cc21,31.2
COc1ccccc1CC(=O)Nc1cccc(NC(C)=O)c1,-0.4
CN(C)c1ccc(Cc2ccc(N(C)C)cc2)cc1,35.7
C[C@@H]1CN([C@H](C)CO)C(=O)Cc2cc(NS(C)(=O)=O)ccc2O[C@H]1CN(C)Cc1ccc(Cl)c(Cl)c1,13.3
CNC[C@H]1Oc2c(NC(=O)Nc3ccccc3)cccc2C(=O)N([C@@H](C)CO)C[C@H]1C,20.8
Cc1noc(C)c1NC(=O)Nc1ccc2c(c1)CC(=O)N([C@@H](C)CO)C[C@@H](C)[C@@H](CN(C)C(=O)Nc1ccccc1)O2,30.3
Cc1cc(SCC(=O)Nc2ccccc2)nc2c(C)cccc12,16.5
C[C@H](CO)N1C[C@H](C)[C@H](CN(C)CC2CC2)Oc2ccc(NS(=O)(=O)c3cccs3)cc2CC1=O,13.2
COc1ccc(NC(=O)N(C)C[C@@H]2Oc3ccc(NC(=O)C4CCCCC4)cc3C(=O)N([C@H](C)CO)C[C@H]2C)cc1,-19.4
CNC[C@H]1Oc2ccc(NS(=O)(=O)c3ccc(F)cc3)cc2C(=O)N([C@@H](C)CO)C[C@@H]1C,-15.2
C[C@H](CO)N1C[C@H](C)[C@@H](CN(C)S(C)(=O)=O)Oc2ccc(NC(=O)Nc3cccc4ccccc34)cc2C1=O,2.7
C[C@H]1CN([C@@H](C)CO)C(=O)c2cccc(NC(=O)C3CC3)c2O[C@@H]1CN(C)C(=O)Nc1ccc(C(F)(F)F)cc1,21.5
O=C(CSc1nccc(=O)[nH]1)N1CCCc2ccccc21,-12.3
COc1ccc(NC(=O)Nc2ccc3c(c2)C(=O)N([C@@H](C)CO)C[C@@H](C)[C@H](CN(C)Cc2ccc(C(F)(F)F)cc2)O3)cc1,65.7
C[C@H]1CN([C@@H](C)CO)C(=O)c2cc(NS(C)(=O)=O)ccc2O[C@H]1CN(C)C(=O)Nc1ccc(C(F)(F)F)cc1,13.5
O=C1/C(=C/c2ccc(O)cc2)SC(=S)N1CCc1ccccc1,102.2*
COc1cc(NC(=O)COc2cc(C)c(Br)c(C)c2)c(OC)cc1Cl,7.0
C[C@@H]1CN([C@H](C)CO)C(=O)Cc2cc(NS(=O)(=O)c3ccc(Cl)cc3)ccc2O[C@H]1CN(C)S(=O)(=O)c1ccc(F)cc1,-6.7
CCn1c(SCC(=O)Nc2sc3c(c2C#N)CCC(C(C)(C)C)C3)nnc1-c1ccco1 (configuration not stated),3.3

# (continued)
SMILES,NOMO-1 viab
COc1ccc(NC(=O)N(C)C[C@@H]2Oc3c(NS(C)(=O)=O)cccc3C(=O)N([C@H](C)CO)C[C@@H]2C)cc1,-1.9
C=C[C@H]1C(=C)CCC2[C@H]1CC[C@@]1(O)[C@@](C)(C(=O)O)[C@H](O)CC[C@]21C (some centres not stated),14.1
C[C@@H]1CCCCO[C@H](CN(C)Cc2ccc(Cl)c(Cl)c2)[C@@H](C)CN([C@H](C)CO)C(=O)c2cc(NC(=O)c3ccccc3)ccc2O1,u
COc1ccccc1NC(=O)c1ccc(OC(C)C(=O)Nc2cc(Cl)ccc2C)cc1 (configuration not stated),14.6
O=C(CSc1nc2ccccc2o1)Nc1ccc(I)cc1,24.3
O=c1[nH]c(SCc2n[nH]c(=S)n2-c2ccccc2)nc2ccccc12,-2.1
C[C@@H]1CN([C@@H](C)CO)C(=O)Cc2cc(NC(=O)Nc3ccc(C(F)(F)F)cc3)ccc2O[C@@H]1CN(C)S(=O)(=O)c1ccc(F)cc1,99.7*
C[C@@H]1CN([C@H](C)CO)C(=O)c2cc(NS(=O)(=O)c3ccc(F)cc3)ccc2O[C@H]1CN(C)C(=O)NC1CCCCC1,-11.0
Cc1ccc(C(=O)CSc2nc(C)nc3sc4c(c23)CCCC4)cc1,17.7
COc1cccc(/C=C/C(=O)O)c1C(C)C,2.4
NS(=O)(=O)c1cccc2c1c([N+](=O)[O-])cc1[nH]c(=O)c(=O)[nH]c12,5.5
C[C@@H]1CN([C@@H](C)CO)C(=O)c2cccc(NC(=O)C3CC3)c2O[C@@H]1CN(C)CC1CCCCC1,6.2
COC(=O)c1c(NC(=S)NC(C)c2ccncc2)sc2c1CCC(C)C2 (configuration not stated),30.1
S=c1[nH]nc(CCCc2n[nH]c(=S)o2)o1,-6.7
Cc1ccc(S(=O)(=O)N(C)C[C@@H]2Oc3ccc(NS(=O)(=O)c4cccs4)cc3CC(=O)N([C@H](C)CO)C[C@H]2C)cc1,6.4

# Some of the entries so far, with each value named:
> C[C@@H]1CN([C@H](C)CO)C(=O)c2cc(NS(=O)(=O)c3ccc(F)cc3)ccc2O[C@H]1CN(C)C(=O)NC1CCCCC1
  NOMO-1 viab: -11.0
> C[C@@H]1CN([C@@H](C)CO)C(=O)c2cccc(NC(=O)C3CC3)c2O[C@@H]1CN(C)CC1CCCCC1
  NOMO-1 viab: 6.2
> COc1ccccc1NC(=O)c1ccc(OC(C)C(=O)Nc2cc(Cl)ccc2C)cc1 (configuration not stated)
  NOMO-1 viab: 14.6
> C=C[C@H]1C(=C)CCC2[C@H]1CC[C@@]1(O)[C@@](C)(C(=O)O)[C@H](O)CC[C@]21C (some centres not stated)
  NOMO-1 viab: 14.1

# (further entries)
SMILES,NOMO-1 viab
COc1ccc(S(=O)(=O)Nc2cccc3c2O[C@@H](CN(C)S(=O)(=O)c2cccs2)[C@H](C)CN([C@H](C)CO)C3=O)cc1,7.3
C[C@H]1CN([C@@H](C)CO)C(=O)Cc2cc(NC(=O)CCCCCC(=O)Nc3ccccc3N)ccc2O[C@H]1CN(C)C(=O)Nc1ccc2c(c1)OCO2,17.7
COc1ccc(S(=O)(=O)N(C)C[C@H]2Oc3c(cccc3N(C)C)C(=O)N([C@@H](C)CO)C[C@@H]2C)cc1,18.3
O=C(CSc1nnc(-c2ccccc2F)n1-c1ccc(Cl)cc1)Nc1ccc(F)cc1F,4.4
C[C@H]1CN([C@@H](C)CO)C(=O)c2cc(NC(=O)CCCCCC(=O)Nc3ccccc3N)ccc2O[C@@H]1CN(C)S(=O)(=O)c1cccs1,27.4
C[C@@H]1CN([C@@H](C)CO)C(=O)c2cccc(NC(=O)C3CCOCC3)c2O[C@H]1CN(C)S(=O)(=O)c1ccccc1,-22.2
C[C@@H]1CN([C@@H](C)CO)C(=O)c2cccc(NC(=O)Nc3ccccc3)c2O[C@@H]1CN(C)Cc1ccncc1,-14.5
C[C@H](CO)N1C[C@H](C)[C@H](CN(C)Cc2ccc(C(F)(F)F)cc2)Oc2ccc(NC(=O)Nc3ccc4c(c3)OCO4)cc2C1=O,8.2
C[C@H]1CN([C@@H](C)CO)C(=O)c2cc(NC(=O)Nc3ccccc3)ccc2O[C@H]1CN(C)Cc1ccc(C(=O)Nc2ccccc2N)cc1,u
Cc1noc(C)c1S(=O)(=O)Nc1ccc2c(c1)C(=O)N([C@H](C)CO)C[C@H](C)[C@@H](CN(C)Cc1ccc(C(=O)Nc3ccccc3N)cc1)OCCCC[C@@H](C)O2,127.3*
C[C@@H]1CCCCO[C@@H](CN(C)C(=O)Nc2cccc3ccccc23)[C@@H](C)CN([C@H](C)CO)C(=O)c2cc(NS(C)(=O)=O)ccc2O1,12.3
Cn1c(O)c(C=NC23CC4CC(CC(C4)C2)C3)c(=O)n(C)c1=O,-5.0
COc1ccc(OC)c(NC(=O)Cc2coc3ccc(C)cc23)c1,18.0
COc1cc(CN(C)Cc2cccc3ccccc23)c([N+](=O)[O-])cc1OC,43.2
CCC(=O)N1c2ccccc2-c2nnc(SC)nc2OC1c1ccccc1 (configuration not stated),32.6

# Given bar-delimited: entries from further up.
smiles | NOMO-1 viab
C[C@H]1CN([C@@H](C)CO)C(=O)c2cc(NC(=O)CCCCCC(=O)Nc3ccccc3N)ccc2O[C@@H]1CN(C)S(=O)(=O)c1cccs1 | 27.4
C[C@@H]1CN([C@@H](C)CO)C(=O)c2cccc(NC(=O)C3CCOCC3)c2O[C@H]1CN(C)S(=O)(=O)c1ccccc1 | -22.2
C[C@@H]1CN([C@@H](C)CO)C(=O)c2cccc(NC(=O)Nc3ccccc3)c2O[C@@H]1CN(C)Cc1ccncc1 | -14.5
